From PubChem
AF4-AF9 inh = MLL-AF4/AF9 protein interaction inhibition. 350,000 compounds, 0.47% hits. P42568. AlphaScreen, biotin-AF4 peptide binding to FLAG-AF9. inhibition, % at 10 µM;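 active means every replicate reaching a set inhibition limit, whatever the replicate mean, cut at about 25% in these data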;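 further: 0% = plate neutral control median and 100% = total signal loss; the record names both 10 and 1 µM as test concentration; the first replicate is given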
Target sequence (P42568 whole entry, looked up): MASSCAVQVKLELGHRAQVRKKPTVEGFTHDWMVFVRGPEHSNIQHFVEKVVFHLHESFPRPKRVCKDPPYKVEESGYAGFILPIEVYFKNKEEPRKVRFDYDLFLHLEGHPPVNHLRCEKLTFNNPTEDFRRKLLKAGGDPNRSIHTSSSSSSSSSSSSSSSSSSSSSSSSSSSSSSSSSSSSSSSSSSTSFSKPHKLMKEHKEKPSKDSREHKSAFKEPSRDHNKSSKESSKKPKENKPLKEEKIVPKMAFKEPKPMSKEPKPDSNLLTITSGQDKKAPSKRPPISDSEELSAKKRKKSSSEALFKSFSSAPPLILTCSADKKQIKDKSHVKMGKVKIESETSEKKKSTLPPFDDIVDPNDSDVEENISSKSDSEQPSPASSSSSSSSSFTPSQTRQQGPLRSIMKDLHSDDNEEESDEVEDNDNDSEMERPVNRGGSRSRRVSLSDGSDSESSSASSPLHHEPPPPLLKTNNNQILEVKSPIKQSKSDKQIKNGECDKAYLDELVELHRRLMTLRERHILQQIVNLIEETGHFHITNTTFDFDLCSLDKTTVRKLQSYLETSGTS
Bfl-1 A1 inh = inhibitors of the anti-apoptotic protein A1, read as caspase activation; 330,000 compounds, 0.066% hits; caspase activation, % (concentration not given with the values); MEF A1-2A-BIM cells, Caspase-Glo 3/7 luminescence, 3 h; percent of clofoctol response, vehicle zero;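 active means over half of replicate activation scores above 10%, or exactly half above 10 with the replicate mean above 10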;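 further: wells of about 30 µL received 50 nL stock; many hits fall short of the cut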
E coli growth = blocks Escherichia coli growth; OD600 absorbance (no concentration beside the values); 330,000 compounds, 0.21% hits; OD600, 23 h; hits give low values;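 active means OD600 absorbance below the run mean of sample wells minus 3.6 SD, in any replicate, cut at about 0.56 in these data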;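 further: stock transfer was 300 nL into about 60 µL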
FGF22 binding = FGF22 (human) thermal shift binding | 340,000 compounds, 1.5% hits | calls only at 9.99 µM | recombinant FGF22 thermal shift, SYPRO orange fluorescence; percent of sucrose octasulfate shift, DMSO zero | Q9HCT0;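 active means melting point raised past a set limit in the mean and every replicate; three in four hits are not shown here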
Target sequence (Q9HCT0 whole entry, looked up): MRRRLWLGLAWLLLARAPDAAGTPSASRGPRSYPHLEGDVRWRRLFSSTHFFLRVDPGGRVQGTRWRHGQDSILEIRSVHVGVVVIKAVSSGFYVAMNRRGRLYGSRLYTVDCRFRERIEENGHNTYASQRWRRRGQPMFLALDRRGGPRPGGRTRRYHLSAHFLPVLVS
UCH37 DUB inh = blocks the human deubiquitinase UCH37 | purified proteasome/UCH37, Ub-AMC cleavage fluorescence | 330,000 compounds, 0.33% hits | Q9Y5K5 | inhibition, % (test concentration not listed) | AID 588478;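 active means mean of two replicates above 20%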;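 further: 0% = compound-free wells with enzyme and 100% = wells lacking proteasome; stock transfer was 100 nL into about 20 µL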
Target sequence (Q9Y5K5 whole entry, looked up): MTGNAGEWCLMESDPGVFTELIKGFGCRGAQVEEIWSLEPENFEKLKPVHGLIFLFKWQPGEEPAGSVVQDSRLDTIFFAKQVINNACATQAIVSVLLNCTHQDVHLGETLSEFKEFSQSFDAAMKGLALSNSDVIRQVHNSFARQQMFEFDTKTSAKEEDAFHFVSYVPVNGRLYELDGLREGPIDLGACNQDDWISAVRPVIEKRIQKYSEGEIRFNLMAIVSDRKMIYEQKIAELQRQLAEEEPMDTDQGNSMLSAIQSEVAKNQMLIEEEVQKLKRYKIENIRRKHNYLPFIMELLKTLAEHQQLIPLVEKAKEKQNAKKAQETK
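System: Proteasome-associated human UCH37 deubiquitinase; Input: 0.15 nM proteasome in added enzyme buffer; Also added: Ub-AMC substrate from 1 µM stock; Incubation: 30 min compound-proteasome preincubation then 25 min substrate reaction, room temperature; Detection: fluorescence, ex 355 nm, em 460 nm; Read-out: % inhibition of Ub-AMC cleavage fluorescence; Benchmarks: no-proteasome and no-compound wells.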
Beta cell apopt = beta cell apoptosis inhibition. 300,000 compounds, 0.8% hits. AID 435005. INS-1E cytokine-induced death, ATP luminescence, 48 h; percent of positive-control rescue, neutral wells zero. protection from apoptosis, % (concentration not given with the values);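 active means all replicates at 75% or more, or half of them and the mean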;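 further: 0% = cytokine-treated negative control wells and 100% = positive control rescue; higher means more ATP so stronger rescue from cytokine killing; wells of about 40 µL received 100 nL stock; the first replicate is given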
T cruzi repl = T. cruzi replication inhibition | T. cruzi beta-gal in NIH3T3, luminescence, 90 h | inhibition, % (no concentration beside the values) | 300,000 compounds, 1.4% hits;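 active means mean inhibition across valid replicates above about 55%, limit read from the data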;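 further: signal also drops with host cell toxicity which is not excluded here; 0% = plate median of DMSO wells and 100% = zero luminescence signal; higher percent means less beta-gal luminescence so fewer parasites; stock transfer was 50 nL into about 50 µL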
Ecoli rRNA inh = inhibitors of bacterial rRNA selective over humanized ribosomes; E. coli WT GFP vs humanized-ribosome RFP mutants, fluorescence, 24 h; hits give low values; DMSO median 0, no signal -100; GFP signal change (wild-type ribosome), % (concentration not given with the values); 350,000 compounds, 1.6% hits; AID 720706;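 active means significant combined selectivity score with lowered wild-type GFP, culture density cut under 30%, mutant RFP and density less affected; inactive means any of these conditions unmet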; further: one replicate is shown; some compounds called inactive have numbers as strong as hits
Ecoli rRNA inh OD600 = second read-out of Ecoli rRNA inh, no call of its own (marks repeat the call); OD600 change, %; measured here: OD600 growth;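 optical density of the mix in the first replicate; 0 = DMSO median and -100 = no signal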
Ecoli rRNA inh RFP = recorded beside Ecoli rRNA inh, whose call it bears; RFP signal change, %; measured here: RFP humanized mutant strains;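 first replicate; 0 = DMSO median and -100 = no signal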
An asterisk follows results filed as active; i = inactive; / = no result given.

compound	Ecoli rRNA inh RFP	Bfl-1 A1 inh	Ecoli rRNA inh OD600	Ecoli rRNA inh	UCH37 DUB inh	AF4-AF9 inh	Beta cell apopt	E coli growth	FGF22 binding	T cruzi repl
CCOC(=O)c1cc(COc2cc(Cl)cc(Cl)c2)on1	/	0.5	/	/	5.7	/	-11	0.7	/	-4
COc1ccc(C(=O)C2CCCN(Cc3cc(C)c(O)c(C)c3)C2)c(OC)c1 (stereo not given)	0.4	-0.5	3	1	1.7	0.2	2	0.62	i	27
O=C1CC(NS(=O)(=O)c2cccnc2)CN1c1ccc(Cl)cc1 (stereo not given)	0.4	0.6	4	5	8.7	0.5	-3	0.7	/	-4
COc1ccc(-c2[nH]ncc2/C=N/NC(=O)c2cccc([N+](=O)[O-])c2)cc1OC	-1.7	0.9	4	6	/	6.2	-4	/	i	-5
COC(=O)C1CCN(C(=O)CN(C)Cc2ccc(C(C)(C)C)cc2)CC1	1.3	-1.1	-10	-2	-3.4	-2.0	/	0.67	i	67*
COc1ccc(N2C(=O)C(Cl)=C(N3CCOCC3)C2=O)cc1	-1.0	-0.8	13	14	6.4	0.6	-1	0.7	i	-17
CCOC(OCC)P(=O)(C(C)C)C(C)C	/	0.6	/	/	-1.3	/	1	0.79	/	-3
CC(C)N(C(=O)CN1CCC(c2nc3ccccc3[nH]2)CC1)C(C)C	0.9	1.2	14	8	4.0	2.9	/	0.68	i	-1
CC(C)CNS(=O)(=O)c1ccc(OCC(=O)Nc2ccc(F)cc2F)cc1	/	0.7	/	/	2.1	/	1	0.72	/	0
CC(=O)Nc1ccc(S(=O)(=O)NCc2csc(C)n2)cc1	/	0.8	/	/	1.3	/	-3	0.7	/	-9
CCC(Sc1nc2ccsc2c(=O)n1-c1ccc(Cl)c(C)c1)C(=O)NCc1ccco1 (stereo not given)	/	0.3	/	/	2.6	/	-10	0.7	/	34
O=C(CCN1C(=O)c2ccccc2C1=O)C1=NN[C@@H]2C(=O)N(c3cccc(F)c3)C(=O)[C@H]12	-1.5	1.5	-3	3	6.8	5.6	3	0.73	i	3
COc1cccc(CNC(=O)C(C)n2nc(C)n3c(cc4occc43)c2=O)c1 (stereo not given)	2.1	-0.1	10	2	3.1	1.3	-7	0.7	i	4
CCCC(=O)Nc1ccc2c(c1)nc1n2CCN(CCOC)C1	0.5	0.1	5	7	-86	-12	-6	0.65	i	-7
Cc1ccc(CCNC(=O)C23CN(Cc4ccccc4)CC2C(c2ccc([N+](=O)[O-])cc2)=NO3)cc1 (stereo not given)	-2.5	0.3	-1	8	3.1	6.1	-17	0.76	i	16
O=C(O)c1ccc(Nc2c3ccccc3nc3ccccc23)cc1	13	1.2	-29	8	-371	0.6	4	0.58	i	10
CCN(CC)CCCn1c(C)cc2c(c1=O)C(c1ccc(OC)c(OC)c1OC)C(C#N)=C(N)O2 (stereo not given)	/	-0.2	/	/	2.8	/	-3	0.7	/	-17
O=C(N/N=C/c1ccccc1)c1ccc(N2CCCC2=O)cc1	-2.0	-0.6	7	-2	/	-2.1	8	/	i	-5
CSc1ccccc1NC(=O)CN1CCN(c2ccccn2)CC1	0.5	1.6	-5	-3	0.2	1.6	-8	0.67	i	-2
CCOC(=O)CC(=O)CSc1ccc2nnc(-c3ccc(F)cc3)n2n1	/	-0.7	/	/	-14	/	1	0.73	/	-22
CCOc1ccc(OCC(=O)OCC(=O)NCC2CCCO2)cc1 (stereo not given)	2.1	1.4	13	7	1.4	-0.1	1	0.65	i	/
COc1cccc(NC(=O)CSc2nnc(-c3ccc(C)cc3)o2)c1	1.8	0.0	1	8	2.4	-1.8	0	0.74	i	7
Cc1cccc(N2CCN(C(=O)Cn3cccc3C(=O)c3ccccc3)CC2)c1C	/	0.7	/	/	0.6	/	2	0.72	/	23
CC1=C(C(=O)Nc2cc(C(=O)NCCCOC(C)C)ccc2C)SCCO1	0.1	-0.2	5	5	3.3	-13	-5	0.66	i	-10
Cc1ccc(S(=O)(=O)CC(=O)c2ccc3c(c2)OCCO3)cc1	2.6	-1.1	2	1	0.7	-0.2	/	0.59	i	3
O=C1CCN(CCc2ccccc2)CCN1[C@H](CSc1ccccc1)Cc1ccccc1	-17	0.4	-73	-39	0.4	1.8	1	/	i	12
C/C(=N/Nc1nc(C)c(C)s1)c1cccc([N+](=O)[O-])c1	-1.7	0.5	1	0	/	-0.4	4	/	i	6
CCc1ccc(C(=O)N/N=C(\C)c2cccnc2)s1	-4.8	-5.0	3	1	/	-1.0	-5	/	i	-11
O=C(Nc1ccccc1)c1ccc(-c2ccccc2Cl)o1	0.0	0.3	-10	0	-1.0	2.2	-3	0.69	i	-13
Cc1cc[n+](-c2nc3ccccc3nc2C(=C=[N-])C#N)cc1	/	-0.7	/	/	2.3	/	0	0.72	/	7
COc1cc(SC)ccc1C(=O)OC(C)C(=O)Nc1ccc(NC(C)=O)cc1 (stereo not given)	0.7	-1.4	-5	-4	6.6	0.3	1	0.71	i	-2
CN(C)CCCNCC(=O)c1c(-c2ccccc2)n(C)c2ccccc12	2.5	1.8	-3	-3	3.1	0.1	-1	0.65	i	29
Cc1nc2ccc(NC(=O)c3ccc(F)c(S(=O)(=O)N4CCOCC4)c3)cc2s1	/	0.1	/	/	1.3	/	-4	0.76	/	-7
O=S(=O)(c1cccc(-c2n[nH]c(=S)o2)c1)N1CCOCC1	-1.0	0.7	4	14	4.4	-5.3	5	0.7	i	-8
CC1CCCCC1NC(=O)CCCCCn1c(=S)[nH]c2ccsc2c1=O (stereo not given)	-2.9	2.0	4	5	4.0	0.0	8	0.72	i	-9
CN(C)CCNC(=O)CNC(=S)N(Cc1ccccc1)Cc1cccnc1	/	0.6	/	/	3.9	/	-6	0.7	/	-1
CCOC(=O)C1(Cc2ccc(OC)cc2)CCN(C(=O)CN2CCOC2=O)CC1	-0.9	0.9	1	-3	4.2	-1.8	0	0.67	i	-6
Cc1ccc(S(=O)(=O)N2CCC[C@H]2C(=O)NC2=NCCS2)cc1	3.8	/	18	17	2.1	-6.9	/	0.69	i	/
O=C1Nc2ccccc2/C1=N\N=C\c1ccc(O)c(O)c1	-3.2	-1.1	-8	-4	/	20	2	/	i	-12
CCC1CCCCN1C(=O)CSc1nnc(-c2cccc(Cl)c2)o1 (stereo not given)	-5.0*	-0.6	-32*	-26*	6.8	-1.1	-2	0.73	i	18
CCOc1ccc(NC(=O)C2CCCN2S(=O)(=O)c2ccc(OCC)cc2)cc1 (stereo not given)	4.7	-0.2	-8	-4	4.8	-2.8	/	0.69	i	8
CCCC(=O)Nc1ccc(-c2csc(-c3cccnc3)n2)cc1	5.9	-2.8	4	1	-0.7	-12	-4	0.64	i	1
Cn1c(=O)c2c(nc(N3CCN(Cc4ccccc4)CC3)n2CCCc2ccccc2)n(C)c1=O	/	-0.1	/	/	-1.4	/	3	0.7	/	25
FC(F)(F)c1cccc(CNc2ncccc2-c2nc3cc(Cl)ccc3o2)c1	/	-1.1	/	/	i	/	8	0.73	/	11
CC(=O)Nc1ccc(C(=O)OCC(=O)N2CCC(Cc3ccccc3)CC2)cc1	6.1	-0.3	-3	-2	5.1	-1.7	-1	0.67	i	/
NS(=O)(=O)c1ccc(NC(=S)NC(=O)/C=C/c2ccco2)cc1	/	0.9	/	/	1.3	/	-5	/	/	-14
O=C(COC(=O)c1ccc(O)cc1)NC1CCCCCC1	0.7	-0.8	0	2	3.1	-3.8	3	0.71	i	/
Cc1cccc(OCCCCCn2ccnc2)c1C	/	0.0	/	/	0.8	/	5	0.6	/	52
CC(C)C(=O)Nc1ccc(C(=O)Nc2nnc(C(C)(C)C)s2)cc1	3.8	-0.3	2	-8	3.4	-0.6	-4	0.64	/	0
CCOc1ccc(N2CC(NC(=O)c3cccc4ccccc34)CC2=O)cc1 (stereo not given)	-3.9	0.4	11	1	1.9	1.1	1	0.65	i	-5

Some of the entries above, set out differently:
canonical_smiles: CCOc1ccc(OCC(=O)OCC(=O)NCC2CCCO2)cc1 (stereo not given)
  Ecoli rRNA inh RFP = 2.1 | Bfl-1 A1 inh = 1.4 | Ecoli rRNA inh OD600 = 13 | Ecoli rRNA inh = 7 | UCH37 DUB inh = 1.4 | AF4-AF9 inh = -0.1 | Beta cell apopt = 1 | E coli growth = 0.65 | FGF22 binding = i | T cruzi repl = /
canonical_smiles: COc1cccc(NC(=O)CSc2nnc(-c3ccc(C)cc3)o2)c1
  Ecoli rRNA inh RFP = 1.8 | Bfl-1 A1 inh = 0.0 | Ecoli rRNA inh OD600 = 1 | Ecoli rRNA inh = 8 | UCH37 DUB inh = 2.4 | AF4-AF9 inh = -1.8 | Beta cell apopt = 0 | E coli growth = 0.74 | FGF22 binding = i | T cruzi repl = 7

(listing goes on)
compound	Ecoli rRNA inh RFP	Bfl-1 A1 inh	Ecoli rRNA inh OD600	Ecoli rRNA inh	UCH37 DUB inh	AF4-AF9 inh	Beta cell apopt	E coli growth	FGF22 binding	T cruzi repl
COc1ccc(-c2cc(C(=O)N3CCN(S(=O)(=O)c4ccccc4)CC3)[nH]n2)cc1	2.9	0.5	-5	-4	3.3	-1.4	5	0.75	i	-8
CCC(C)NS(=O)(=O)c1ccc(S(=O)(=O)N(CC(=O)Nc2ccccc2)Cc2ccco2)cc1 (stereo not given)	/	-0.7	/	/	1.4	/	9	0.76	/	18
CC(C)c1nnc(NC(=O)CCC(=O)NCc2cccs2)s1	/	/	/	/	0.7	/	-5	0.69	/	-9
CN(C(=O)c1cc2ccccc2o1)c1c(N)n(Cc2ccccc2)c(=O)[nH]c1=O	3.5	0.2	5	7	-6.2	4.1	-4	0.69	i	/
NS(=O)(=O)c1cccc(NC(=O)Cn2cc(C(F)(F)F)cc(Cl)c2=O)c1	-5.1	1.1	2	7	-1.3	-22	-2	0.71	i	-2
Cc1ccc(NC(=O)CN(C)C(=O)COC(=O)c2ccc(NC(=O)CC#N)cc2)cc1	1.7	1.3	8	1	1.3	-1.5	-4	0.64	i	/
CCC/C(C#Cc1ccc(N(C)C)cc1)=C1/c2ccccc2C(=O)N1c1ccccc1	2.7	0.2	6	10	-2.1	-4.0	48	/	i	/
CCc1ccc(NC(=O)CN2CCC(C(=O)c3ccc(OC)cc3)CC2)cc1	7.5	0.0	-70	-31	1.7	-8.0	7	0.59	i	19
CS(=O)(=O)N(CC(=O)NCc1ccncc1)c1ccc(Cl)c(Cl)c1	-1.4	0.2	0	5	8.5	0.1	-8	0.71	i	10
Cc1ccccc1CN1[C@@H]2c3ccccc3C[C@@H]2OCCS1(=O)=O	-8.1	-0.9	-12	-20	3.3	1.2	-4	/	i	9
CCc1nc2c(oc3ccccc32)c(=O)[nH]1	/	-3.2	/	/	-1.8	/	2	0.68	/	-10
O=c1cc(-c2ccc(O)cc2)oc2c1ccc1ccccc12	1.3	-0.5	6	4	8.8	0.0	-6	0.69	i	/
O=C(c1cccnc1)N1CCN(c2ccc([N+](=O)[O-])cc2Cl)CC1	-10	0.6	-2	2	3.1	-2.9	-1	0.72	i	-19
CC(=O)N1CCN(C(=O)c2ccccc2NS(=O)(=O)c2ccc(F)cc2)CC1	-0.4	1.4	7	4	-1.8	5.7	-6	0.67	i	/

The list is partial; count on the stated rates, not on these rows.
